Source: PubChem (National Center for Advancing Translational Sciences (NCATS))
NS1 inh – blocks influenza NS1 protein function; Potency, µM (titrated, usually from 46.1 µM), for the others: at the top dose activity, positive = more growth; S. cerevisiae slowed by influenza A NS1, growth recovery by OD600; AID 2326; actives 0.4% (n = 270,000); note: actives are rising curves; nearly all actives have a fitted effect of over 50% in size
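In this qHTS, NS1 from influenza A is expressed in budding yeast, where it slows growth. Cells are switched from glucose to 2% galactose medium (pH 6.0, -URA), treated with compound, and growth recovery is read at OD600.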
RE007 growth inh – less growth of the S. pombe RE007 Vpr strain; actives 0.21% (n = 360,000); AID 651644; S. pombe RE007 Vpr strain, BacTiter-Glo ATP luminescence, 24 h; control for the full effect not named in the record; Potency, µM (doses to about 92.2 µM), inactives show at the top dose activity change, negative = less growth; active = well fitted falling curve with a large enough effect; inconclusive = small, poorly fitted or top-dose-only effect; inactive = no such curve, though single readings can be large or run the other way;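 note: % is set by controls: 0 for no effect and ±100 for the full control effect; nearly all actives have a fitted effect of over 50% in size; the assay follows cell death caused by Vpr and the record does not say whether a fall means rescue or toxicity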
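Fission yeast RE007 carrying one integrated HIV-1 vpr copy, seeded at OD 0.01 in PMG+AL medium with 23 nL pinned compound. Grown 24 h at 30 degrees; viability read by BacTiter-Glo luminescence after 5 min.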
LASV entry inh – inhibitors of Lassa virus binding or cell entry; actives 1.2% (n = 300,000); Lassa virus pseudotype entry inhibition, cell reporter; control for the full effect not named in the record; Potency, µM (highest dose often 37.9 µM), for the others: at the highest dose activity change, negative = inhibition, usual class: inhibitors; active means well fitted inhibition curve with a large enough effect; inconclusive means small, poorly fitted or top-dose-only effect, or effect the other way; inactive means flat fitted curve, though single readings scatter; tested in HEK293 cells; note: % is set by controls: 0 for no effect and ±100 for the full control effect; nearly all actives have a fitted effect of over 50% in size; luciferase read-out
StopGo reporter – lowers the luciferase signal of an FMDV 2A StopGo reporter; AID 1159524; actives 1.2% (n = 410,000); Potency, µM (highest dose often 57.9 µM), for the others: at the top dose signal change, negative = less light; human cells with a luciferase reporter of 2A StopGo recoding; control for the full effect not named in the record; active = well fitted falling curve with a large enough effect; inconclusive = small, poorly fitted or top-dose-only effect; inactive = no such curve, though single readings can be large or run the other way; tested in HEK293T cells; note: % is set by controls: 0 for no effect and ±100 for the full control effect; nearly all actives have a fitted effect of over 45% in size; luciferase light after 4 h
SARS PLP yeast – SARS-CoV PLP inhibition in yeast. Potency, µM (titrated, usually from 32.9 µM), inactives show top-dose activity, positive = growth rescue. S. cerevisiae expressing SARS-CoV PLpro, growth rescue; control for the full effect not named in the record. actives 0.19% (n = 330,000); note: 0% is about no effect; nearly all actives have a fitted effect of over 55% in size; growth read by luminescence after 48 h
Cruzain inh noDet – inhibitors of Trypanosoma cruzi cruzain without detergent. purified cruzain, Z-FR-AMC fluorescence, no detergent. Potency, µM, without a hit: max response, negative = inhibition, actives largely listed as inhibitors. actives 2.3% (n = 200,000); active = well fitted curve in the direction sought with a large enough effect; inconclusive = small, poorly fitted or top-dose-only effect, or another doubt; inactive = no such curve, though single readings can be large; an effect the other way counts as inactive or inconclusive;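 note: plate controls were enzyme without inhibitor for no effect and buffer without enzyme for full effect; nearly all actives have a fitted effect of over 40% in size; top concentration of the series not given in the record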
Target sequence (P25779 123-467 limits assumed): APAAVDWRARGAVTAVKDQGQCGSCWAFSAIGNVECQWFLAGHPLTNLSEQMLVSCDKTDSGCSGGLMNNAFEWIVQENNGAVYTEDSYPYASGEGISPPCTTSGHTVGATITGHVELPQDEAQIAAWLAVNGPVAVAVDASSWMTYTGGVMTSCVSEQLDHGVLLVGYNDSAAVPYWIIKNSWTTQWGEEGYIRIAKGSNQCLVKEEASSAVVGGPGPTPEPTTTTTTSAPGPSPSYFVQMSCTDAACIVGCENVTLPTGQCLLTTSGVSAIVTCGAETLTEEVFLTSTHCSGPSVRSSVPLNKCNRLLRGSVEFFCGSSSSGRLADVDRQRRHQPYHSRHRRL
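Purified cruzain at 1.5 nM, pre-incubated 15 min with compound at room temperature in 100 mM sodium acetate pH 5.5, 5 mM DTT, 0.00005% Triton X-100. Reaction started with 2 uM Z-FR-AMC; AMC fluorescence increase over 60 s gives rate.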
Marburg entry inh – Marburg virus entry inhibition; Marburg virus pseudotyped entry inhibition, cell reporter; control for the full effect not named in the record; about a third of the inactives were read at about 46 µM; Potency, µM (highest dose often 37.8 µM), inactives show at the highest dose activity change, negative = inhibition, actives largely listed as inhibitors; actives 1.8% (n = 300,000); AID 540276; active = well fitted inhibition curve with a large enough effect; inconclusive = small, poorly fitted or top-dose-only effect, or effect the other way; inactive = flat fitted curve, though single readings scatter; tested in HEK293 cells; about a fifth of its hits are not listed in these tables; note: % is set by controls: 0 for no effect and ±100 for the full control effect; luciferase read-out
Cruzain inh Det – blocks cruzain activity in presence of Triton detergent; Potency, µM, for the others: max response, negative = inhibition, actives largely listed as inhibitors; actives 0.43% (n = 200,000); P25779; AID 1478; purified cruzain, Z-FR-AMC fluorescence, 0.01% Triton; active = well fitted curve in the direction sought with a large enough effect; inconclusive = small, poorly fitted or top-dose-only effect, or another doubt; inactive = no such curve, though single readings can be large; an effect the other way counts as inactive or inconclusive;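 note: plate controls were neutral wells for no effect and buffer without enzyme for full effect; nearly all actives have a fitted effect of over 40% in size; top concentration of the series not given in the record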
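Cruzain (1.5 nM) preincubated 15 min at RT with compound in 100 mM sodium acetate pH 5.5, 5 mM DTT, 0.01% Triton X-100. Reaction started with 2 uM Z-FR-AMC; AMC fluorescence (ex 360/em 450 nm) change over 60 s gave rate.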
Numbers without * were called inactive; ? = inconclusive; . = not tested or not shown; [ ] = remark or other dose. Unless noted, calls come from the whole dose curve; as a rule, active means well fitted rising curve with a large enough effect; inconclusive means small, poorly fitted or top-dose-only effect; inactive means no such curve, though single readings can be large or run the other way. Potency is the fitted concentration of half-maximal effect. Compounds as they come (roughly 4.5% active in at least one column).

SMILES | NS1 inh | RE007 growth inh | LASV entry inh | StopGo reporter | SARS PLP yeast | Cruzain inh noDet | Marburg entry inh | Cruzain inh Det
CCCN(CCC)C(=O)CSc1nc2c(sc(=S)n2-c2ccc(OCC)cc2)c(=O)[nH]1 | . | -4% | ? | ? | 3% | . | 15%[46.1 µM] | .
COc1ccc(C(=O)Nc2cccc(/C=C(/CCC(=O)O)c3nc4ccccc4s3)c2)cc1 | . | -25% | 15%[46.1 µM] | 35%[activator] | . | . | 25%[46.1 µM] | .
CCOc1ccc(-c2nnc(-c3ccccc3)n2-c2ccccc2)cc1 | 4% | 1% | 13% | 9% | -5% | -5% | -4% | 5.7%
CCN(CC)c1ccc(-c2c(C#N)c(N)nc(OC)c2C#N)cc1 | 0%[9.22 µM] | 17% | ? | -3% | 5% | -5% | ? | -7.3%
CC(OC(=O)c1ccccc1)C(=O)NCCC1=CCCCC1 (centres undefined) | -1% | -18% | ? | 8% | -1% | . | -5%[46.1 µM] | .
Cc1cc(SCC(=O)N/N=C/c2ccc(O)cc2O)nc2ccccc12 | -61% | -11% | ? | -25% | 13% | . | ? | .
c1ccc(-n2ncc3c(NCc4ccccn4)ncnc32)cc1 | -15% | 13% | 21% | 35%[activator] | -7% | 3% | 6% | 0.6%
Nc1nnc(SCCOc2ccc(Br)cc2)s1 | -60% | 5% | 8% | -4% | -21% | 2% | ? | -4.7%
O=C(c1ccccc1)N1CCc2cc(CNS(=O)(=O)c3ccccc3Cl)ccc21 | . | . | ? | ? | . | -6% | . | 0.7%
O=C(Nc1nc2cc3c(cc2s1)OCO3)c1ccco1 | -7% | ? | ? | -75% | -5% | . | ? | .
Cc1cccc(NC(=O)c2ccc(S(=O)(=O)NCc3cccnc3)cc2)c1C | 4% | 2% | ? | 2% | -2% | . | -30%[46.1 µM] | .
COc1ccccc1NC(=O)N(Cc1ccco1)Cc1cc2cccc(C)c2[nH]c1=O | 5% | 5% | -21% | -24% | -4% | -24% | ? | -13%
CCCCC(CCC(=O)Nc1cc([N+](=O)[O-])ccc1O)C(=O)O (centres undefined) | . | -10% | -6% | 10% | -1% | . | ? | .
Cc1ccc(NC(=O)C2C(=O)N(CCO)C3(C)CC2c2ccccc2O3)cc1 (centres undefined) | -7% | 11% | ? | 45%[activator] | 3% | -9% | 14% | -1.1%
COc1ccccc1C(=O)Nc1cccc(C(=O)N2CCOCC2)c1 | -4% | -4% | 12% | 8% | 1% | . | ? | .
CC(=O)c1sc(NS(=O)(=O)c2ccc(C)cc2)nc1-c1ccccc1 | 24% | -11% | 3%[46.1 µM] | 56%[activator] | 11% | . | -20%[46.1 µM] | .
COc1cccc(CN2CCNC(=O)C2CC(=O)N(C)C2CCOCC2)c1OC (centres undefined) | 1% | 3% | 1% | -19% | 3% | . | -45% | .
CC(=O)N1CCN(Cc2nc3cc(NC(=O)Cn4nc(C)c5ccccc5c4=O)ccc3n2C)CC1 | -3% | -7% | 5% | -3% | -6% | 0% | 16% | 0.6%
Cc1cc(C(=O)N/N=C/c2ccc3ccccc3c2)n[nH]1 | 2% | 22% | . | 29% | 2% | . | . | .
NS(=O)(=O)c1ccc(NNC(=O)c2sccc2Cl)cc1 | 3% | -5% | 3% | -3% | 0% | . | -19%[46.1 µM] | .
COc1cc(C)c(NC(=S)Nc2cccc(Cl)c2)cc1OC | -3% | 1% | 9% | 0% | 1% | -4% | -11% | -4.1%
O=C(Cc1ccccc1)N1CCC(O)(c2cccnc2)CC1 | 1% | 20% | 5% | -7% | . | -9% | 1% | 4.8%
O=c1c2cc(N3CCOCC3)ccc2[nH]c(=S)n1Cc1ccc(Cl)cc1 | 16% | 32% | ? | 2% | -5% | -10% | 4% | -6.4%
CC(=O)c1ccc(NC(=O)c2cnn3ccccc23)cc1 | -13% | -4% | . | -53% | -2% | -1% | . | 0.4%
Brc1cccc(-c2nnc3n2CCC3)c1 | -5% | -10% | 10% | . | 6% | 2% | 7% | 4.4%
(next part)
SMILES | NS1 inh | RE007 growth inh | LASV entry inh | StopGo reporter | SARS PLP yeast | Cruzain inh noDet | Marburg entry inh | Cruzain inh Det
CCCOc1ccc(C(=O)c2nc3c(n2O)CCCC3)cc1 | -72% | -11%[3.69 µM] | 15% | 11% | -17% | -1% | ? | -9.3%
CC(=O)c1cccc(NC(=S)NC2CC2)c1 | -3% | 26% | 1% | -15% | ? | -8% | ? | -2.0%
COc1cc(S(=O)(=O)N(Cc2ccccc2)CC2CCCO2)ccc1-n1cnnn1 (centres undefined) | -5% | 35% | ? | 47%[activator] | -1% | . | -2%[46.1 µM] | .
COc1cc(OC)c(NC(=O)c2noc3c2CSc2ccccc2-3)cc1Cl | . | . | ? | 0% | . | -3% | -7%[46.1 µM] | -8.5%
O=C(CN1C(=O)NC2(CCCCC2)C1=O)N1CCN(S(=O)(=O)c2ccc(F)c(F)c2F)CC1 | . | -26% | 21% | -17% | -1% | . | 8% | .
Clc1ccc(CSc2snnc2-c2ccccc2)c(Cl)c1 | 3% | -7% | 11% | 39%[activator] | -19% | -8% | -28% | -9.5%
OC(c1ccccn1)C(O)c1ccccn1 (centres undefined) | . | -19% | 1%[46.1 µM] | -19% | . | . | 3% | .
O=C(NCc1ccccn1)c1cccc(S(=O)(=O)Nc2ccc(SC(F)F)cc2)c1 | . | 6% | -14% | -25% | -1% | . | ? | .
Cc1ccc(C(=O)C(C)OC(=O)C2CC(=O)N(C3CCCCC3)C2)cc1 (centres undefined) | -15% | 0% | 8% | 7% | 1% | 13% | ? | 3.3%
COc1ccccc1NC(=O)c1ccc(NC(=O)CSc2ncn[nH]2)cc1 | 0% | 11% | -8% | -14% | 18% | 2% | 0% | -4.9%
Cc1ccccc1-n1nnnc1SCC(=O)c1c(N)n(C)c(=O)n(C)c1=O | 6% | -7% | . | -5% | 0% | . | . | .
N=c1c2c(ncn1Cc1ccco1)Oc1ccc3ccccc3c1C2c1ccccc1 (centres undefined) | ? | 1% | ? | ? | -33% | -10% | 9.2µM* | -14%
CC(NC(=O)CSc1ncccn1)c1ccc2c(c1)OCO2 (centres undefined) | . | 13% | 0% | 7% | -2% | . | 7% | .
CN(C)S(=O)(=O)c1ccc(Cl)c(NC(=O)COC(=O)CCSc2ccccc2)c1 | -18% | 3% | 2% | -8% | 0% | 3% | ? | -16%
Cc1occc1-c1nnc(SCC(=O)N2CCOCC2)n1CCc1ccccc1 | -15% | -13% | -5% | -15% | 1% | 6% | -1% | 1.8%
CCOC(=O)c1c(N)n(Cc2ccco2)c2nc3ccccc3nc12 | -3% | -4% | -2% | -23% | -3% | -9% | -12% | -20%
COc1cc2ccccc2cc1C(=O)N/N=C/c1ccc2c(c1)OCO2 | 0% | -19% | . | -15% | 1% | . | . | .
CCC1=NN(C(=O)CCc2ccccc2)C(O)(C(F)(F)F)C1 (centres undefined) | 28% | 9% | 7% | . | 4% | 6% | 8% | 5.3%
O=C(NCc1ccccc1)c1cncc(Br)c1 | -8% | -24% | 14% | 2% | -4% | 16% | -10% | -0.5%
O=c1c2c(nc3c(-c4ccc(Cl)cc4)c[nH]n13)CCCC2 | -15% | -11% | 10µM* | 22µM* | 13% | 2% | ? | 2.0%
COc1cc(C=NNC(=O)c2ccc(NS(=O)(=O)c3cccs3)cc2)cc(Br)c1O | . | -7% | -12%[46.1 µM] | 12% | 5% | . | 8%[46.1 µM] | .
CC(=O)Nc1ccccc1Sc1ccccc1 | 2% | -9% | -17% | 16% | -8% | -8% | 15% | 8.8%
O=C(NCCc1c[nH]c2ccccc12)c1ccc(F)cc1F | -15% | 1% | -3%[46.1 µM] | 51%[activator] | -12% | . | ? | .
c1ccc(C2CNCCc3ccccc32)cc1 (centres undefined) | 5% | -5% | . | -17% | 0% | . | . | .
O=C(/C=C/c1ccccc1[N+](=O)[O-])N1CCN(c2ccccc2F)CC1 | -5% | -10% | . | 13% | 0% | . | . | .
Other compounds follow:
SMILES | NS1 inh | RE007 growth inh | LASV entry inh | StopGo reporter | SARS PLP yeast | Cruzain inh noDet | Marburg entry inh | Cruzain inh Det
CC1=CC(c2ccccc2)n2nnnc2N1 (centres undefined) | ? | 3% | 0%[46.1 µM] | -18% | 2% | . | ? | .
O=C(NCCc1ccccc1)/C(=N\O)c1ccccc1 | 3% | -8% | ? | 64%[activator] | 4% | -2% | ? | -0.3%
CCn1c(=O)cc(SCC(=O)NCc2ccc(C)o2)c2ccccc21 | -6% | 17% | -18% | 12% | 4% | 8% | ? | 2.7%
CCOC(=O)c1csc(NC(=O)CCSc2ccccc2)n1 | . | -5% | -11% | -10% | -2% | . | ? | .
Cc1nonc1C(=O)N/N=C/c1cc2c(cc1Br)OCO2 | 1% | 5% | . | 30%[activator] | 1% | . | . | .
COc1ccccc1N1CCN(C(=O)c2cc(=O)c3c(C)cc(C)cc3o2)CC1 | 7% | -3% | . | -13% | 1% | . | . | .

Reprinted at random: 4 records from the list
SMILES | NS1 inh | RE007 growth inh | LASV entry inh | StopGo reporter | SARS PLP yeast | Cruzain inh noDet | Marburg entry inh | Cruzain inh Det
CCOC(=O)c1csc(NC(=O)CCSc2ccccc2)n1 | . | -5% | -11% | -10% | -2% | . | ? | .
CCC1=NN(C(=O)CCc2ccccc2)C(O)(C(F)(F)F)C1 (centres undefined) | 28% | 9% | 7% | . | 4% | 6% | 8% | 5.3%
O=C(/C=C/c1ccccc1[N+](=O)[O-])N1CCN(c2ccccc2F)CC1 | -5% | -10% | . | 13% | 0% | . | . | .
O=c1c2cc(N3CCOCC3)ccc2[nH]c(=S)n1Cc1ccc(Cl)cc1 | 16% | 32% | ? | 2% | -5% | -10% | 4% | -6.4%
